# Compound activity as filed in PubChem BioAssay.
# HPGD block: HPGD (human) dehydrogenase inhibition; purified HPGD, NADH fluorescence kinetic, PGE2 substrate; Potency, µM, for the others: at the top dose activity change, negative = inhibition, usual class: inhibitors; 150,000 tested, 4.3% active; active = well fitted inhibition curve with a large enough effect (not every such curve was filed as active); inconclusive = small, poorly fitted or top-dose-only effect, or another doubt; inactive = no such curve, though single readings can be large or run the other way;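 note: top concentration of the series not given in the record; plate controls included wells without enzyme; inactives centre near -10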
# Target sequence (P15428 whole entry, looked up): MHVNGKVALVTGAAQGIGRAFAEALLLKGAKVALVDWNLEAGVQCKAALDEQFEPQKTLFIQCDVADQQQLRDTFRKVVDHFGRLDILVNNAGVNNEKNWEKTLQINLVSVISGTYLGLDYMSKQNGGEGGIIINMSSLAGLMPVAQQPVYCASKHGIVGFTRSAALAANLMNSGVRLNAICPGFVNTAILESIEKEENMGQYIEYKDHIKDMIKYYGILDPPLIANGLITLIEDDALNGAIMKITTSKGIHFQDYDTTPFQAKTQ
#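 20 nM HPGD preincubated 15 min at room temperature with compound in 50 mM Tris-HCl pH 8, 0.01% Tween 20. Started with 1 mM NAD+ and 30 uM prostaglandin E2; NADH fluorescence (360/450 nm) read 5 times over 30-s intervals, last minus first.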
# The depositor's hits bear a star; ? = inconclusive. % is set by controls: 0 for no effect and ±100 for the full control effect; potency is the fitted concentration of half-maximal effect.
SMILES,HPGD block
COc1ccc(NC(=O)CCNC(=O)Cn2cnc3ccccc3c2=O)c(OC)c1,8.3%
COCC(=O)N1CCC[C@@]2(CCN(c3ncccn3)C2)C1,-15.9%
Cn1ncc2c(=O)n(CC(=O)NC34CC5CC(CC(C5)C3)C4)cnc21,-14.9%
Cc1ccc(OCc2nnc(NC(=O)c3ccco3)s2)c(C)c1,-17.1%
Oc1ccc(C(=S)N2CCCCC2)cc1,?
CN(C)CCNC(=O)Cc1ccc([N+](=O)[O-])cc1,-7.5%
CC(=O)c1cnc2nc(C)nn2c1C,-8.3%
CCOc1ccc(S(=O)(=O)NCCCN2CCOCC2)c2ccccc12,-5.8%
CCOc1ccccc1Nc1nnc(SCC(=O)Nc2cc(C)on2)s1,-10.6%
CC(=O)Nc1ccc(S(=O)(=O)N(C)S(=O)(=O)c2ccc(F)cc2)cc1,-9.9%
COc1cc(C(=O)Nc2cc(C(F)(F)F)ccc2Cl)cc(OC)c1OC,2.8%
COc1ccc(Cl)cc1NC(=O)CSc1ncnc2c1oc1ccccc12,-15.4%
CCNC(=O)N1CCN(CCCC(c2ccc(F)cc2)c2ccc(F)cc2)CC1,-10.2%
O=C(COC(=O)c1ccccc1C(=O)c1ccc(Cl)cc1)NC(c1ccccc1)c1ccccc1,-0.5%
O=C(c1cc([N+](=O)[O-])ccc1Cl)N1CCN(c2ccc([N+](=O)[O-])cc2)CC1,-25.7%
COc1ccc(C(=O)N/N=C/c2ccc3cccc(OCc4ccccc4)c3n2)cc1,?
Cc1ccccc1Cn1nc(C)c(NC(=O)c2cc(-c3cccs3)on2)c1C,-9.5%
Nc1cc(N)nc(SCc2cccnc2)n1,-7.2%
O=C(c1ccc(COc2ccc(Cl)cc2)o1)N1N=C(C(F)F)CC1(O)C(F)F (stereo not drawn),-9.8%
CCNc1nc(NCC)nc(SCCOC(=O)c2ccccc2)n1,-5.0%
COc1cccc(OC)c1C(=O)NC(=S)N1CCN(c2ccc(C(F)(F)F)cc2[N+](=O)[O-])CC1,-9.4%
CCOc1ccc(-c2[nH]ncc2Oc2ccccc2OCC)c(O)c1,-19.0%
O=C(CN1C(=O)C2C3CCC(C3)C2C1=O)OCC(=O)c1cccc([N+](=O)[O-])c1 (stereo not drawn),-10.2%
CCOC(=O)C1CCN(C(=O)c2cnn3c(C)cc(C)nc23)CC1,?
CCNc1nc2nonc2nc1NCC,-8.9%

# (more compounds)
SMILES,HPGD block
Cn1ccnc1SCc1ccc([N+](=O)[O-])cc1,-9.2%
O=C(CSc1nc2ccccc2n1CC(=O)N1CCCC1)Nc1nccs1,-1.2%
COc1ccc(S(=O)(=O)NCCC(=O)NCc2cccs2)cc1,-3.1%
COc1ccc2c(c1OC)C(C1c3c(cc4c(c3OC)OCO4)CCN1C)OC2=O (stereo not drawn),-11.8%
Cc1c(NC(=O)c2cc3ccccc3oc2=O)c(=O)n(-c2ccccc2)n1C,-11.5%
COc1ccccc1-c1c(C(F)(F)F)oc2cc(OC(=O)c3cccc([N+](=O)[O-])c3C)ccc2c1=O,-16.1%
NC(=O)NC(N)=O,-9.4%
C=CCn1c(SCc2ccccc2C#N)nnc1-c1ccccc1O,-15.6%
COc1ccc(C(NC(=O)c2ccc(-c3ccccc3)cc2)c2ccccc2)cc1 (stereo not drawn),-7.3%
CCOC(=O)N1CCC(c2cc(=O)n3[nH]ccc3n2)CC1,?
COc1ccc(N2CCN(c3nc(NCCc4ccc(OC)c(OC)c4)nc(OC)n3)CC2)cc1,-2.1%
O=C(NCCCC(=O)N1CCOCC1)c1cccnc1,-5.8%
O=C(Nc1ccccc1)C(Cc1cccs1)c1nn[nH]n1 (stereo not drawn),2.0%
CCC(CC)C(=O)NCc1ccccc1Cl,-15.6%
COc1ccc(-n2nc(C(=O)NCC(=O)Nc3ccccn3)c3ccccc3c2=O)cc1,?
OC(CN1CCN(Cc2ccccc2)CC1)Cn1c2ccccc2c2ccccc21 (stereo not drawn),-3.8%
O=C(OCC(=O)N1CCCc2ccccc21)c1cnc(Cl)c(Cl)c1,-16.0%
CC(=O)Nc1nc(C)c(Cc2ccccc2)c(=O)[nH]1,-7.0%
CCn1c(=O)cc(SCC(=O)N2CCN(C(=O)c3ccco3)CC2)c2ccccc21,-6.5%
Cc1ccc(C)c(NC(=O)C(C)CC2COCCO2)c1 (stereo not drawn),-8.8%
CCCCCn1c(S(=O)(=O)O)nc2ccccc21,-12.6%
CCOC(=O)N1CCN(c2c(N3CCN(c4cccc(C)c4C)CC3)c(=O)c2=O)CC1,-0.9%
O=c1[nH]nc(Cc2ccc(-c3ccc(Cl)cc3)o2)c2ccccc12,-23.4%
CCN(CC)C(=O)C(=O)N/N=C/c1ccc(Br)cc1,-15.0%
O=C1OC(=O)c2c(Cl)c(Cl)c(Cl)c(Cl)c21,-3.5%

# 3 compounds already listed, arranged by the value under HPGD block, high to low:
canonical_smiles | HPGD block
Cc1ccc(C)c(NC(=O)C(C)CC2COCCO2)c1 (stereo not drawn) | -8.8%
COc1cccc(OC)c1C(=O)NC(=S)N1CCN(c2ccc(C(F)(F)F)cc2[N+](=O)[O-])CC1 | -9.4%
COc1ccc2c(c1OC)C(C1c3c(cc4c(c3OC)OCO4)CCN1C)OC2=O (stereo not drawn) | -11.8%

# New compounds follow:
SMILES,HPGD block
CCN(CC)c1ccc(/C=N/Nc2ccccc2)c(O)c1,28.2µM*
CCc1nnc(NC(=O)C(=O)NCCOC(=O)c2ccccc2Cl)s1,-16.1%
Cc1ccc(-c2nnc(SCC(=O)Nc3ccccc3F)o2)cc1,-15.2%
O=C(c1cccs1)n1nc(-c2ccccc2)nc1NCc1ccco1,-7.5%
O=C(CN1CCN(S(=O)(=O)c2ccc(Cl)cc2)CC1)Nc1ccc2c(c1)OCCO2,-1.0%
CC(=O)C1=C(O)C(=O)N(CCCCCC(=O)O)C1c1ccc(N(C)C)cc1 (stereo not drawn),-5.7%
O=C(O)c1ccccc1-c1oc2cc(O)ccc2c(=O)c1Oc1ccccc1,?
CCc1nc2scc(-c3cccs3)c2c(=O)o1,-24.6%
O=S(=O)(c1ccccc1)N1CCC2(CCN(c3cccc(-c4ccccc4)c3)CC2)CC1,?
Cc1c(C(=O)O)oc2ccc(S(=O)(=O)NCc3ccc4c(c3)OCO4)cc12,?
COc1cc(CNc2ccc3[nH]c(=O)[nH]c3c2)cc(Br)c1OCC(=O)NC(C)(C)C,?
O=C(CN1C(=O)c2ccccc2C1=O)Nc1ccccc1C(=O)N1CCCC1,-4.5%
Nc1ncnc2c1[nH]c(=O)n2C1CC(O)C(CO)O1 (stereo not drawn),-1.9%
Cc1nc2ccc(S(=O)(=O)NC(C(=O)NCc3cccs3)C(C)C)cc2s1 (stereo not drawn),?
COc1ccccc1OCCCCN1CCN(C(c2ccccc2)c2ccccc2)CC1,-18.5%
Oc1c(Cl)cccc1C=Nc1cc(C(F)(F)F)ccc1N1CCCC1,15.8µM*
CCOC(=O)N1CCN(S(=O)(=O)/C=C/c2ccccc2)CC1,-0.2%
O=C(NCc1ccncc1)c1nnc(Cc2c(F)cccc2Cl)o1,-12.8%
O=C(CCSCCc1ccncc1)NCCCN1CCOCC1,-2.3%
CC(=O)Nc1ccc2c(c1)nc(CCN1CCOCC1)n2C,-13.3%
Cc1ccc(C2CC(c3ccco3)=NN2S(C)(=O)=O)cc1 (stereo not drawn),-5.6%
CC(C)CC(=O)Nc1ccccc1Oc1ccccc1,-6.1%
CC(=O)Nc1ccc(N=Cc2nc(-c3ccc(C)cc3)oc2O)cc1,-17.2%
Cc1nc2c(C)cccc2cc1C(=O)N/N=C/c1cccnc1,-10.4%
COC(=O)c1ccc(NC(=S)NCCc2ccccc2)cc1,-10.5%

# Five of the compounds above, with bars between the fields.
Molecule | HPGD block
Nc1ncnc2c1[nH]c(=O)n2C1CC(O)C(CO)O1 (stereo not drawn) | -1.9%
Cc1nc2ccc(S(=O)(=O)NC(C(=O)NCc3cccs3)C(C)C)cc2s1 (stereo not drawn) | ?
COc1ccccc1OCCCCN1CCN(C(c2ccccc2)c2ccccc2)CC1 | -18.5%
Oc1c(Cl)cccc1C=Nc1cc(C(F)(F)F)ccc1N1CCCC1 | 15.8µM*
CCOC(=O)N1CCN(S(=O)(=O)/C=C/c2ccccc2)CC1 | -0.2%

# Continued:
SMILES,HPGD block
O=C(CCN1CCCCC1)Nc1ccc2c(c1)C(=O)c1ccc(NC(=O)CCN3CCCCC3)cc1C2=O,-9.2%
CC(CC(=O)Nc1ccccc1C(F)(F)F)c1ccccc1 (stereo not drawn),-23.8%
CCOc1ccc(N2CC(C(=O)N3CCc4ccccc4C3)CC2=O)cc1 (stereo not drawn),-8.5%
COc1ccc(N(CC(=O)NC2CCCCC2)S(=O)(=O)c2cccnc2)cc1,-9.4%
COc1ccc(C2CC(=O)c3ccc(OC)cc3O2)cc1 (stereo not drawn),-11.6%
COc1cc(CN2CCCC(C)C2)cc([N+](=O)[O-])c1O (stereo not drawn),1.7%
O=[N+]([O-])c1ccc(C2CCCC/C2=N\OCc2cccc(F)c2)c([N+](=O)[O-])c1 (stereo not drawn),-7.0%
O=C1Nc2cc(Cl)cnc2N2CCCC12 (stereo not drawn),?
Fc1ccc(CO/N=C/C2=C(Cl)c3ccccc3CC2)cc1,-8.0%
O=C(Nc1cccc([N+](=O)[O-])c1)c1ccc2nc(N3C(=O)CCC3=O)sc2c1,-24.8%
c1c[nH]cn1,-7.9%
CC1C/C(=N/Nc2nc3ccccc3[nH]2)CC(C)(C)C1 (stereo not drawn),-8.7%
O=C(O)[C@@H]1CCCN1Cc1ccc2c(c1)OCO2,-10.7%
Nc1nc(=S)c2[nH]cnc2[nH]1,35.5µM*
Cn1c(=O)c2cc(S(=O)(=O)N3CCC(c4ccccc4)CC3)ccc2n(C)c1=O,-12.1%
COc1ccc(C2=NC(=O)/C(=C\c3cc(OC)c(OC)c(OC)c3)O2)cc1,-22.0%
COc1ccc(-c2nn(C)c3sc(C(=O)NCc4ccco4)cc23)cc1OC,?
CN(C)CCN(C(=O)c1ccccc1Cl)c1nc2c(Cl)cccc2s1,-20.1%
Cc1ccccc1OCC(=O)Nc1ccc2c(c1)OCO2,-26.0%
O=C(NCCN1CCOCC1)c1cc2sccc2n1Cc1ccc(F)cc1,25.1µM*
COc1ccc(C(c2c(O)ccc3ccccc23)N2CCOCC2)c(OC)c1 (stereo not drawn),-19.6%
Cc1ccc(-n2nnnc2SC(C)C(=O)Nc2ccc(Cl)cn2)cc1 (stereo not drawn),-20.9%
O=C(NCc1ccco1)c1sc2cc(Cl)ccc2c1Cl,15.8µM*
COCCN(C(=S)Nc1cccc(OC)c1)C(C)c1cccs1 (stereo not drawn),-18.5%
CCN(CC)c1ccc(C2C(C(=O)OC(C)C)C(=O)CC(C)(O)C2C(=O)OC(C)C)cc1 (stereo not drawn),-5.0%

# Next structures follow.
SMILES,HPGD block
Cc1noc(C)c1S(=O)(=O)N1CCC(C(=O)N2CCN(c3ccc(F)cc3)CC2)CC1,-6.7%
O=C(NCc1cccs1)c1ccc(N2CCCC2=O)cc1,20µM*
O=C(CSc1nnc(-c2cccs2)n1-c1ccccc1)NCC1CCCO1 (stereo not drawn),-28.9%
C#CCOc1c(Br)cc(/C=N\NC(=O)CN2CCOCC2)cc1OCC,-10.7%
Oc1c(C(c2ccco2)N2CCN(C(c3ccccc3)c3ccccc3)CC2)sc2ncnn12 (stereo not drawn),-4.3%
CC1(C)CC(=O)C(C(=S)Nc2ccccc2)=C(NCCN2CCOCC2)C1,-3.6%
O=C(CSc1ncnc2c1oc1ccccc12)N1CCCc2ccccc21,-18.9%
c1ccc(SCCN2CCc3ccccc3C2)cc1,-5.4%
Cc1ccc(NC(=O)c2cccc(N3C(=O)C4C5CCC(C5)C4C3=O)c2)c(C)c1 (stereo not drawn),0.9%
COc1ccc(OC)c(NC(=S)N2CCN(C/C=C/c3ccccc3)CC2)c1,-7.7%
O=C(NCCOc1cccc(Cl)c1Cl)c1cc(-n2cnnc2)ccc1Cl,-8.1%
COC(=O)c1[nH]c2c(c1C)C(=O)CC(c1ccccc1)C2 (stereo not drawn),-5.7%
Cc1ccc(C)c(OCC(=O)N/N=C/c2c(C)nn(-c3ccccc3)c2Cl)c1,-3.2%
O=C1NCCCC1C(=O)N1CCN(C(=O)C2CCCNC2=O)CC1 (stereo not drawn),-11.3%
Nc1ncc(-c2nnnn2-c2ccc(Cl)cc2)c(-c2ccc(Cl)cc2)n1,-9.4%
COc1ccc(OCCC(=O)OCc2c(C)noc2C)cc1,-13.8%
CCC(=O)OCc1cc2cccc(C)c2[nH]c1=O,?
Clc1ccc2oc(-c3ccccc3)nc2c1,-18.0%
CCOc1ccc(Oc2nc(NCC(C)C)nc(N(C)C)n2)nn1,-14.5%
Cc1cc(C(=O)N2CCc3ccccc32)n(-c2ccccc2)n1,0.3%
C=CCNC(=O)C1=NOC(CNC(=O)c2c(-c3ccccc3Cl)noc2C)C1 (stereo not drawn),-5.8%
Cc1ccc(C)c(S(=O)(=O)Nc2nc(C)c(C(=O)Nc3ccccc3)s2)c1,-9.6%
O=C(Nc1cccc(O)c1)N1CCOCC1,-8.7%
O=C1c2ccccc2S(=O)(=O)N1CC(O)Cn1c2ccccc2c2ccccc21 (stereo not drawn),8.91µM*
FC(F)(F)c1ccc2c(c1)nc1n2CCCC1,-14.1%
N#Cc1cc(-c2ccccc2)cnc1Cl,-15.1%
CCOc1ccc(OCCCC(=O)O)cc1,-8.0%
O=C(NCc1cccs1)C1CCCN(S(=O)(=O)c2cccs2)C1 (stereo not drawn),-10.3%
OC(COCC1COc2ccccc2O1)CN1CCN(c2ccccc2)CC1 (stereo not drawn),1.5%

# In a second layout: results already given.
structure	HPGD block
C=CCNC(=O)C1=NOC(CNC(=O)c2c(-c3ccccc3Cl)noc2C)C1 (stereo not drawn)	-5.8%
Cc1ccc(C)c(S(=O)(=O)Nc2nc(C)c(C(=O)Nc3ccccc3)s2)c1	-9.6%

# Some of the compounds tested; rates above refer to the full screens.
